D2 agonist = human D2 receptor agonism in beta-arrestin assay; P14416; DiscoveRx PathHunter D2 beta-arrestin, luminescence, 90 min; 100% = 57 uM dopamine signal; activation, % (no concentration beside the values); 0.084% of 360,000 active; in the data active = activation above about 40%; inconclusive = about 15% to 40%; inactive = below about 15%; further: compound concentration not given in the record; the text of the record calls up to 30% inactive
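DiscoveRx PathHunter D2 beta-arrestin cells (2,100/well) attached overnight, then compound-stimulated 90 min at 37 C in HBSS/10 mM HEPES/0.1% Tween-20 buffer; beta-galactosidase complementation read by luminescence after 1 h at ambient temperature. Dopamine 57 uM final (EC100) as control.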
Six1-Eya2 blk = blocks human Six1 binding to Eya2. Q15475+O00167. AlphaScreen GST-Six1/His-Eya2 binding, biochemical; active compounds read low; control for the full effect not named in the record. activity change, % (no concentration beside the values). 0.56% of 360,000 active; in the data active = activity change below about -65%; inconclusive = about -30% to -65%; inactive = above about -30%; further: on the % scale 0 is the no-effect control and ±100 the full control effect
Target sequence (O00167 whole entry, looked up): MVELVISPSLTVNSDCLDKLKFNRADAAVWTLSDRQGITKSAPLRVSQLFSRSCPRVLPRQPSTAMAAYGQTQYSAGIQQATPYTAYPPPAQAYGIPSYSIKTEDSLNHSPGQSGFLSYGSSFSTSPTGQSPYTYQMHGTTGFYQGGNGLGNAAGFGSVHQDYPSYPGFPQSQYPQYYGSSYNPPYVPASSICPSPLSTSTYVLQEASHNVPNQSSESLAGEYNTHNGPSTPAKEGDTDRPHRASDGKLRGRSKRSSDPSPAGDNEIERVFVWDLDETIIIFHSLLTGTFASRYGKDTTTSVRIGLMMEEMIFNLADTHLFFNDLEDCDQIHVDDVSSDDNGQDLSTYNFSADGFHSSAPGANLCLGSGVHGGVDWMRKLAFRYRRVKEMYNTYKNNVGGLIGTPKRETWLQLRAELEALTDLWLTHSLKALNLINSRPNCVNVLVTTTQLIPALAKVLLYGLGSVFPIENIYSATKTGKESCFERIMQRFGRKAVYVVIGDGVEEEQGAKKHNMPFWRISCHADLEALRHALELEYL
Target sequence (Q15475 whole entry, looked up): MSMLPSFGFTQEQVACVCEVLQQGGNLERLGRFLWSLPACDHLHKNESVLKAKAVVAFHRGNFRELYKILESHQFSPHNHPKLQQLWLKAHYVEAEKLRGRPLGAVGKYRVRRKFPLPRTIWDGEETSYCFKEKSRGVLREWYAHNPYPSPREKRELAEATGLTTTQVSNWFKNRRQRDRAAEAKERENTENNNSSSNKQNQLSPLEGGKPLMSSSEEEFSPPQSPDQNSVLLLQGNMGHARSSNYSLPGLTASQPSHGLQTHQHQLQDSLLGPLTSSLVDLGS
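Compounds are tested against tagged Six1 and Eya2 proteins bridged by glutathione donor and nickel acceptor beads; after a one-hour incubation at 37 °C without light, AlphaScreen emission is recorded.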
PINK1 expr mod = changes PINK1 expression; Potency, µM (top dose mostly 76.6 µM), for the others: at the highest dose activation (PINK1 increase), hits mostly activators; 0.2% of 410,000 active; PINK1 immunofluorescence, high-content cytometry, 24 h; active = well fitted activation curve with a large enough effect; inconclusive = small, poorly fitted or top-dose-only effect; inactive = flat fitted curve, though single readings scatter; cell line not stated here;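 further: potency means the concentration at half of the fitted maximal effect; % of control where 0% means no effect; nearly all actives have a fitted effect of over 65% in size; a mitochondrial uncoupler was the plate control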
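Measures PINK1 amount and localization on or inside mitochondria by immunofluorescence. Stable cells get compounds at 5 concentrations for 24 hours before fixation and staining; CCCP controls included.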
D2 potentiator = positive allosteric modulators of human D2 dopamine receptor; P14416; DiscoveRx D2 beta-arrestin cells, luminescence, 90 min; 100% = 57 uM dopamine signal; potentiation, % (test concentration not listed); 0.23% of 360,000 active; AID 624464; active = potentiation of 50% or more; inconclusive = 30% to 50%; inactive = 30% or less;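 further: compound concentration not given in the record; tested on top of an EC20 dose of dopamine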
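PathHunter beta-arrestin assay in DiscoveRx D2 cells. Compounds were added with an EC20 of dopamine (50 nM final) for 90 min at 37 deg C. Luminescence was read 1 h after detection reagent, with 57 uM dopamine as the EC100 control.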
TRPV1 PAM = potentiators of human vanilloid receptor 1 (TRPV1); Q8NER1; TRPV1-expressing cells, Fluo-8 calcium influx, capsaicin EC20 potentiation; host cell line not named in the record; control for the full effect not named in the record; potentiation, % at 8.33 µM; 0.02% of 320,000 active; active means potentiation above 80%; inconclusive means 30% to 80%; inactive means below 30%; further: 0% is about no effect
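Fluo-8 calcium influx in TRPV1-expressing cells, kinetic read (ex 480/em 520 nm). Compound added and read 3 min for agonist activity, followed by capsaicin at EC20 final and 2 min further read for enhancement.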
Sfp inh = inhibitors of Bacillus subtilis Sfp phosphopantetheinyl transferase. 3.5% of 310,000 active. Biochemical Sfp PPTase activity, qHTS. Potency, µM, for the others: max response, negative = inhibition, actives largely listed as inhibitors. AID 1490. Q9F4F7; active means well fitted inhibition curve with a large enough effect; inconclusive means small, poorly fitted or top-dose-only effect, or another doubt; inactive means no such curve, though single readings can be large or run the other way;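 further: the enzyme is Sfp with the accession as filed and its product quenches rhodamine fluorescence; potency means the concentration at half of the fitted maximal effect; 0% = enzyme reaction without inhibitor and -100% = no enzyme wells; top concentration of the series not given in the record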
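Sfp 15 nM + cpd, 15 min RT; start w/ rhodamine-CoA 5 uM, BHQ-2-YbbR 12.5 uM (final); 50 mM Hepes pH 7.6, 10 mM MgCl2, 0.01% NP-40, 0.01% BSA; read 525/598 nm at 0 and 30 min.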
CtBP-E1A blk = inhibitors of CtBP/E1A interaction. AlphaScreen GST-E1A/His-CtBP binding, 1536-well; active compounds read low; control for the full effect not named in the record. 0.49% of 340,000 active. activity change, % (no concentration beside the values); in the data active means activity change below about -65%; inconclusive means about -30% to -65%; inactive means above about -30%; further: on the % scale 0 is the no-effect control and ±100 the full control effect
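In 5 uL wells, 23 nL compound meets equimolar GST-E1A and His-CtBP (5X stock 125 nM each) for 2 h, 37 °C. Beads (5X, 50 ug/mL) then 1 h, 37 °C, dark.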
Active calls of the source: *; u = inconclusive; x = no result given; [ ] = remark or other dose.

SMILES	D2 agonist	Six1-Eya2 blk	PINK1 expr mod	D2 potentiator	TRPV1 PAM	Sfp inh	CtBP-E1A blk
C/C(CC(=O)Nc1cc(C)ccn1)=N\NC(=O)C(=O)NC(C)C	-5.5	6	-0.3%	-4	-1	-21%	-13
N#CC1=C2N=C(N)c3ccccc3N2C2=C(C(=O)CCC2)C1c1ccccc1F (stereo not drawn)	-1.2	-21	1.2%	-7	24	5%	-2
Cn1cc(CNCc2cn(C)nc2-c2ccc(C3CCCCC3)cc2)cn1	1.4	-22	-0.3%	-13	5	12%	0
CC(C)CNC(=O)C(=O)NNC(=O)C1CCCCC1	-0.5	1	6.4%[38.3 µM]	-11	u	-20%	8
CC(C)Nc1nnc(SC(C)C(=O)N(C)C2CCCCC2)s1 (stereo not drawn)	1.0	-1	-0.6%	-2	-2	x	1
CS(=O)(=O)Nc1cccc(C2=NN(S(=O)(=O)c3ccc(F)cc3)C(c3cccs3)C2)c1 (stereo not drawn)	-3.5	0	-1.4%	-8	5	4%	-1
O=C(Nc1cccc2cccnc12)c1ccc2c(c1)OCCO2	-1.7	8	-23%[38.3 µM]	-9	-8	u	13
O=C1CNC(=O)/C1=C/c1ccccc1	4.6	-12	-1.5%	-5	0	-12%	-9
COCCN(C(=O)COC(=O)CCOc1cc(C)ccc1C)c1c(N)n(Cc2ccccc2)c(=O)[nH]c1=O	-3.9	4	-2.0%	20	x	x	-6
O=C(CN1C(=O)NC2(CCCCCC2)C1=O)Nc1ccc(Cl)cc1Cl	3.9	1	1.1%	-3	-15	x	-3
O=C(Nc1ccccc1C(=O)O)c1ccc(Cl)c(S(=O)(=O)N2CCOCC2)c1	0.5	1	-1.5%	5	-5	8%	-4
CCOC(=O)C1=C(O)/C(=C/c2ccccn2)SC1=Nc1ccc(Cl)cc1	3.7	-3	13%	8	-15	32µM*	2
CC(C)C[C@@H](CN1CCC[C@@H]1CN1C(=S)NC[C@@H]1Cc1ccc(O)cc1)N1C[C@H](Cc2ccc(O)cc2)N(CCc2ccccc2)C1=S	-3.8	0	0.0%	-12	x	x	-28
Cn1ncc([N+](=O)[O-])c1C(=O)Nc1ccc(C2CCCCC2)cc1	3.5	-12	1.5%	-2	-7	-10%	-12
COc1ccccc1CNC(=O)CNC(=O)Cn1cnc2ccccc2c1=O	1.5	-2	1.3%	3	1	14%	5
C=CCNC(=O)c1onc(CCl)c1C(=O)OC	-2.3	4	3.6%	-10	-20	-6%	3
O=C(Oc1ccccc1Cl)C1CCN(C(=O)c2ccc(F)cc2)CC1	-3.1	6	1.3%	-14	-14	x	3
C=Cc1ccc(Cn2c(C)c(C(=O)NCCC#N)sc2=O)cc1	-4.4	6	0.0%	-1	x	x	2
Cc1cccc(N2CC(=O)N(c3cccc(C)c3)CC2=O)c1	-3.7	6	-1.1%	-5	6	14%	10
COc1ccc(CN(C)CC(=O)Nc2sc3c(c2C#N)CCC3)c(OC)c1	7.5	-8	2.1%	-6	-5	1%	x
CCOc1ccc(S(=O)(=O)N2CCC(C(N)=O)CC2)c2ccccc12	-2.1	-3	-0.4%	-2	-3	-2%	1
CCc1nnc(NC(=O)CSc2nnc(COc3ccccc3C)o2)s1	-2.8	-2	-2.9%	-9	7	u	-9
c1ccc2c(-c3nnc(SCc4cn5ccccc5n4)o3)c[nH]c2c1	-7.5	-16	1.0%	6	9	-22%	-8
C[C@H](CO)N1C[C@H](C)[C@@H](CN(C)CC2CCCCC2)Oc2ccc(NS(C)(=O)=O)cc2C1=O	-3.6	-17	1.1%	-13	x	x	2
CN(CC(=O)Nc1ccc(F)cc1)C(=O)c1ccccc1OCc1ccc(F)cc1	-6.4	0	-0.9%	-11	-7	19%	0

3 compounds out of the list, ordered by length of the SMILES, high to low:
SMILES	D2 agonist	Six1-Eya2 blk	PINK1 expr mod	D2 potentiator	TRPV1 PAM	Sfp inh	CtBP-E1A blk
COc1ccc(CN(C)CC(=O)Nc2sc3c(c2C#N)CCC3)c(OC)c1	7.5	-8	2.1%	-6	-5	1%	x
Cn1cc(CNCc2cn(C)nc2-c2ccc(C3CCCCC3)cc2)cn1	1.4	-22	-0.3%	-13	5	12%	0
C=CCNC(=O)c1onc(CCl)c1C(=O)OC	-2.3	4	3.6%	-10	-20	-6%	3

Following part.
SMILES	D2 agonist	Six1-Eya2 blk	PINK1 expr mod	D2 potentiator	TRPV1 PAM	Sfp inh	CtBP-E1A blk
CC1(C)NC(=O)N(CC(=O)OCC(=O)N2CCN(S(=O)(=O)c3ccccc3)CC2)C1=O	-4.5	-1	2.8%	-19	-9	x	-1
O=C(N/N=C/c1ccccc1[N+](=O)[O-])c1cnccn1	-3.5	4	3.0%	3	-6	-14%	-2
Cc1cccc(Nc2nc(N)c([N+](=O)[O-])c(N3CC(C)CC(C)C3)n2)c1 (stereo not drawn)	-2.9	-22	-4.1%	-10	1	-1%	-19
CC(C)CN(C(=O)COC(=O)c1ccc2c(c1)NC(=O)CS2)C1CCS(=O)(=O)C1 (stereo not drawn)	-2.8	1	1.8%	-10	5	50µM*	2
Cc1cc(C)n(CCOC(=O)c2sc3ccccc3c2Cl)n1	-2.4	8	-1.8%	-33	3	-23%	6
CC(=O)Nc1ccc2oc(-c3cc(F)c(F)cc3Cl)nc2c1	-0.5	-1	-1.0%	14	-8	22%	-9
O=C(CNC(=O)OCc1ccccc1)Oc1ccc2ccc(=O)oc2c1	0.3	4	-0.8%	-26	7	6%	2
Cc1cc(C)n2nc(SCCC(=O)NCc3ccccc3)nc2n1	2.9	3	3.0%	2	-6	17%	-6
COC(=O)c1ccccc1NC(=O)c1ccc(-c2ccc(Br)cc2)o1	-0.9	0	17%	-4	-4	-5%	9
CC(C)NS(=O)(=O)c1ccc(CCC(=O)Nc2ccc3c(c2)OCO3)cc1	-1.8	3	0.4%[38.3 µM]	-19	6	7%	8
CCOC(=O)C1=C(O)/C(=C\c2cccs2)N=C1C	-4.0	-2	-0.8%	11	10	11%	-2
O=C(NC(CO)C(=O)OCc1ccccc1)OCc1ccccc1 (stereo not drawn)	1.1	-2	0.6%	-9	-9	x	6
CCOc1ccccc1N1CCN(Cc2ccc(OC)c(OC)c2)CC1	-1.4	-7	2.1%	1	3	-24%	0
CCc1nnc(NC(=O)Cn2nnc(-c3ccccc3F)n2)s1	-1.8	-1	-1.7%[38.3 µM]	0	9	16%	-3
CCN(Cc1ccccc1)S(=O)(=O)c1cc(C(=O)NCC2CCCCC2)ccc1OC	-9.7	1	-0.1%	-15	0	27%	4
O=S(=O)(c1cccs1)N1CCC(Cc2ccccc2)CC1	-1.5	14	-0.9%	-3	5	19%	24
O=C(CN1C(=O)NC2(CCCC2)C1=O)N1CCN(c2cccc(C(F)(F)F)c2)CC1	-2.6	-5	-0.3%	2	-6	x	8
CCOc1ccc(C(=O)OCC(=O)Nc2cc(S(=O)(=O)N3CCOCC3)ccc2N2CCOCC2)cc1	3.9	-2	-0.5%	0	x	x	x
Cc1ccccc1NC(=O)c1ccc2snnc2c1	-1.1	16	0.5%	-1	3	19%	0
Cc1cc(C)c(S(=O)(=O)N2CCc3ccccc32)c(C)c1	-1.1	10	1.2%	-8	9	-9%	x
Cn1c(CN2CCN(c3ccccc3NS(C)(=O)=O)CC2)nc2ccccc21	-4.1	-9	2.9%	-24	4	-18%	x
CCOc1ccccc1N1C(=O)CC(Sc2nccc(C)n2)C1=O (stereo not drawn)	0.5	-2	2.3%	-10	-8	10%	x
O=C(CSc1nnc(NC(=O)c2ccco2)s1)Nc1ccccc1Cl	0.8	4	0.1%	9	9	-17%	-15
CCCC(=O)Nc1ccc(C(=O)n2nnc3ccccc32)cc1	-0.2	5	u	2	-24	6%	3
CCOc1ccc(C2=Nn3c(nnc3-c3cccnc3)SC2)cc1	-2.9	-5	3.3%	-8	-9	-7%	-9
CN(C(=O)CN1C(=O)S/C(=C\c2ccccc2)C1=O)C1CCS(=O)(=O)C1 (stereo not drawn)	2.8	3	-1.1%	1	0	4%	x
O=C(Nc1c(Cl)ccc2nsnc12)c1ccc(Br)o1	-1.3	7	-1.2%	-6	x	x	3

Among those listed so far, these have two or more sulfur atoms.
SMILES	D2 agonist	Six1-Eya2 blk	PINK1 expr mod	D2 potentiator	TRPV1 PAM	Sfp inh	CtBP-E1A blk
CC(C)Nc1nnc(SC(C)C(=O)N(C)C2CCCCC2)s1 (stereo not drawn)	1.0	-1	-0.6%	-2	-2	x	1
CS(=O)(=O)Nc1cccc(C2=NN(S(=O)(=O)c3ccc(F)cc3)C(c3cccs3)C2)c1 (stereo not drawn)	-3.5	0	-1.4%	-8	5	4%	-1
CC(C)C[C@@H](CN1CCC[C@@H]1CN1C(=S)NC[C@@H]1Cc1ccc(O)cc1)N1C[C@H](Cc2ccc(O)cc2)N(CCc2ccccc2)C1=S	-3.8	0	0.0%	-12	x	x	-28
CCc1nnc(NC(=O)CSc2nnc(COc3ccccc3C)o2)s1	-2.8	-2	-2.9%	-9	7	u	-9
CC(C)CN(C(=O)COC(=O)c1ccc2c(c1)NC(=O)CS2)C1CCS(=O)(=O)C1 (stereo not drawn)	-2.8	1	1.8%	-10	5	50µM*	2
O=S(=O)(c1cccs1)N1CCC(Cc2ccccc2)CC1	-1.5	14	-0.9%	-3	5	19%	24
O=C(CSc1nnc(NC(=O)c2ccco2)s1)Nc1ccccc1Cl	0.8	4	0.1%	9	9	-17%	-15
CN(C(=O)CN1C(=O)S/C(=C\c2ccccc2)C1=O)C1CCS(=O)(=O)C1 (stereo not drawn)	2.8	3	-1.1%	1	0	4%	x

Assay outcomes as filed in PubChem.
